TRPML1 blocker: qHTS for Inhibitors of the Human Mucolipin Transient Receptor Potential 1 (TRPML1) | Mucolipin-1 (Homo sapiens), Q9GZU1 | TRPML1-inducible cells, Ca2+ dye fluorescence, FDSS; hits give low values; inhibition of EC80 agonist-evoked calcium signal | activity change, negative = inhibition, % (no concentration beside the values) | actives 0.02% (n = 390,000) | AID 624415, 2012; in the data active means activity change below about -50%; inconclusive means about -30% to -50%; inactive means above about -30%;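 note: stimulus is agonist 54-4 at its EC80 concentration; % is set by controls: 0 for no effect and ±100 for the full control effect; compound concentration not given in the record; the text of the record puts the active cut at -80%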
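TRPML1-DL cells, Tet-induced overnight (~16 h, 37 °C) at 1,500 cells/well, were loaded with Ca8 no-wash dye plus quencher for 45-90 min at room temperature. Compounds were pinned during FDSS kinetic reading; agonist 54-4 at EC80 (4 uM final) then added.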
D2 agonist: Beta-Arrestin HTS for Positive Allosteric Modulators of the Human D2 Dopamine Receptor: Agonists. D(2) dopamine receptor (Homo sapiens), P14416. DiscoveRx PathHunter D2 beta-arrestin, luminescence, 90 min; 100% = 57 uM dopamine signal. activation, % (no concentration beside the values). actives 0.084% (n = 360,000). AID 624465, 2012; in the data active = activation above about 40%; inconclusive = about 15% to 40%; inactive = below about 15%; note: compound concentration not given in the record; the text of the record calls up to 30% inactive
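DiscoveRx PathHunter D2 beta-arrestin cells (2,100/well) attached overnight, then compound-stimulated 90 min at 37 C in HBSS/10 mM HEPES/0.1% Tween-20 buffer; beta-galactosidase complementation read by luminescence after 1 h at ambient temperature. Dopamine 57 uM final (EC100) as control.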
PINK1 expr mod: A Quantitative High throughput Screen to Identify Chemical Modulators of PINK1 Expression; PINK1 immunofluorescence, high-content cytometry, 24 h; Potency, µM (doses to about 76.6 µM), without a hit: top-dose activation (PINK1 increase), most hits filed as activators; actives 0.2% (n = 410,000); AID 624263, 2012; active = well fitted activation curve with a large enough effect; inconclusive = small, poorly fitted or top-dose-only effect; inactive = flat fitted curve, though single readings scatter; cell line not stated here;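 note: potency is the fitted concentration of half-maximal effect; % of control where 0% means no effect; nearly all actives have a fitted effect of over 65% in size; a mitochondrial uncoupler was the plate control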
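Fluorescence from anti-PINK1 antibody, together with nuclear and cell stains, was scanned on a laser-scanning cytometer. Before staining, stable-line cells were incubated 24 hours with compounds at 5 concentrations; primary antibody 12 h at 10 degrees C.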
CtBP-E1A inh: qHTS Assay for Inhibitors of the CtBP/E1A Interaction | CtBP / adenovirus E1A interaction (AlphaScreen) | AlphaScreen GST-E1A/His-CtBP binding, 1536-well; hits give low values; control for the full effect not named in the record | activity change, % (test concentration not listed) | actives 0.49% (n = 340,000) | AID 651724, 2012; in the data active means activity change below about -65%; inconclusive means about -30% to -65%; inactive means above about -30%; note: % is set by controls: 0 for no effect and ±100 for the full control effect; compound concentration not given in the record
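Steps: dispense buffer (Tris pH 8.0, NaCl 300 mM, TCEP 1 mM, BSA, Tween 20); add 5X protein mix (GST-E1A, His-CtBP, 125 nM each); pin 23 nL compound; 2 h at 37 °C, dark; add 5X beads (50 ug/mL); 1 h; read.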
Six1-Eya2 blk: qHTS Assay for Inhibitors of the Six1/Eya2 Interaction. AlphaScreen GST-Six1/His-Eya2 binding, biochemical; hits give low values; control for the full effect not named in the record. activity change, % (test concentration not listed). actives 0.56% (n = 360,000). AID 651725, 2012; in the data active = activity change below about -65%; inconclusive = about -30% to -65%; inactive = above about -30%; note: % is set by controls: 0 for no effect and ±100 for the full control effect; compound concentration not given in the record
Target sequence (O00167 whole entry, looked up): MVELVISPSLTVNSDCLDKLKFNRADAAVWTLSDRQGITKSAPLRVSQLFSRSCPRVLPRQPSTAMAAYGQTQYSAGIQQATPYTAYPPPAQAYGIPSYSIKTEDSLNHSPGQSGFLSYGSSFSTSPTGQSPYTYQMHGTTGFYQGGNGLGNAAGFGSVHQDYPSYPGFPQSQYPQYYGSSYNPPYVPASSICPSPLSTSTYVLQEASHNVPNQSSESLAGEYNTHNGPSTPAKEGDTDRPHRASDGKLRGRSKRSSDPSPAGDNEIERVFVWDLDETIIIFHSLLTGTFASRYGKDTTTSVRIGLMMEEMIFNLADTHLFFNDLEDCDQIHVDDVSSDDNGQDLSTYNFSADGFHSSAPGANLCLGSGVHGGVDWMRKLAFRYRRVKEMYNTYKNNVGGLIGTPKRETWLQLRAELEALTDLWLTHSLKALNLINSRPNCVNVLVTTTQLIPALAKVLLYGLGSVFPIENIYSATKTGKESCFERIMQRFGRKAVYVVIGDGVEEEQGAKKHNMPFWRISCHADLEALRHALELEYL
Target sequence (Q15475 whole entry, looked up): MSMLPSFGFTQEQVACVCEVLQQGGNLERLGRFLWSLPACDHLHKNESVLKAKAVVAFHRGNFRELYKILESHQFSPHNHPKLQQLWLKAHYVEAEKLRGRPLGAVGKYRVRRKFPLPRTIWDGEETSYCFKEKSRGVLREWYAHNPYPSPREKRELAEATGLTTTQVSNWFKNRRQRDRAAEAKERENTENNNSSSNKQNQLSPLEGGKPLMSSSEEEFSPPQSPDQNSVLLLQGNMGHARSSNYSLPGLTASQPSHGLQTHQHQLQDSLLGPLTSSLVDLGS
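Compounds are tested against tagged Six1 and Eya2 proteins bridged by glutathione donor and nickel acceptor beads; after a one-hour incubation at 37 °C without light, AlphaScreen emission is recorded.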
TRPML1 ag: qHTS for Agonists of the Human Mucolipin Transient Receptor Potential 1 (TRPML1); activation, % (no concentration beside the values); TRPML1-expressing cells, Ca2+ dye fluorescence, FDSS; host cell line not named in the record; reference of the full effect not given here; Mucolipin-1 (Homo sapiens), Q9GZU1; actives 0.12% (n = 410,000); AID 624414, 2012; in the data active = activation above about 50%; inconclusive = about 30% to 50%; inactive = below about 30%; note: 0% is about no effect; the text of the record puts the active cut at 80%
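Tet-induced TRPML1-DL cells, 1,500 per well, cultured overnight, were loaded with a no-wash Ca2+ dye for 45–90 min. Calcium fluorescence was recorded on the FDSS for 110 s after compound addition, before the EC80 agonist (4 uM 54-4) was added.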
Active calls of the source: *; ? = inconclusive; · = no result given; [ ] = another dose, or the depositor's remark. Rows are unselected; any-hit rate near 1%.

SMILES	TRPML1 blocker	D2 agonist	PINK1 expr mod	CtBP-E1A inh	Six1-Eya2 blk	TRPML1 ag
CCOC(=O)C1(CCOc2ccccc2)CCN(Cc2cc(OC)cc(OC)c2)CC1	10.2	1.6	?	-4.0	-9.0	1.1
COc1ccc(NC(=O)C(=O)Nc2cccc3ccccc23)c(OC)c1	-10.2	0.4	4.9%	-2.8	5.1	-1.0
O=C(Nc1ccncc1)c1sc2ccccc2c1Cl	11.9	2.5	0.4%	-5.9	5.0	-1.1
Cc1cc(C)nc(NS(=O)(=O)c2ccc(N3Cc4ccccc4C3=O)cc2)n1	9.1	-2.4	-0.1%	-5.0	-1.9	0.0
Cc1cccc(N2C(=O)C(Cl)=C(Nc3c(C)n(C)n(-c4ccccc4)c3=O)C2=O)c1C	22.3	0.9	-4.0%[38.3 µM]	0.7	0.6	0.6
CCN1CCN(C(=O)Cn2ncc3c([nH]c4ccccc43)c2=O)CC1	2.3	0.8	0.6%	·	7.7	0.1
Cc1ccc(C)c(N2CCN(CCN3CCCCC3)CC2)c1	-1.3	1.1	0.2%	·	2.5	1.7
Cc1ccc2[nH]c(=O)c(CN(Cc3cccnc3)C(=S)NCCCN(C)C)cc2c1	-5.9	-1.2	-2.0%	11.6	1.6	-0.4
O=[N+]([O-])c1ccc2c(c1)CCN2	-10.0	-1.0	0.9%	-14.7	-1.3	1.0
CCCCOC(=O)C(C#N)c1nc2ccccc2nc1N1CCOCC1 (stereo not drawn)	26.8	-4.3	2.0%	-9.8	-15.0	0.1

Five compounds drawn at random from the list so far, as already listed:
SMILES	TRPML1 blocker	D2 agonist	PINK1 expr mod	CtBP-E1A inh	Six1-Eya2 blk	TRPML1 ag
Cc1ccc(C)c(N2CCN(CCN3CCCCC3)CC2)c1	-1.3	1.1	0.2%	·	2.5	1.7
O=C(Nc1ccncc1)c1sc2ccccc2c1Cl	11.9	2.5	0.4%	-5.9	5.0	-1.1
CCOC(=O)C1(CCOc2ccccc2)CCN(Cc2cc(OC)cc(OC)c2)CC1	10.2	1.6	?	-4.0	-9.0	1.1
O=[N+]([O-])c1ccc2c(c1)CCN2	-10.0	-1.0	0.9%	-14.7	-1.3	1.0
CCCCOC(=O)C(C#N)c1nc2ccccc2nc1N1CCOCC1 (stereo not drawn)	26.8	-4.3	2.0%	-9.8	-15.0	0.1

Other compounds follow:
SMILES	TRPML1 blocker	D2 agonist	PINK1 expr mod	CtBP-E1A inh	Six1-Eya2 blk	TRPML1 ag
CCCCN1Cc2c(nc3cc(-c4ccco4)[nH]n3c2=O)C1=O	-11.7	1.5	0.4%	12.8	11.7	-0.3
CC1CCC(NS(=O)(=O)c2ccc(N3CCCC3=O)cc2)CC1 (stereo not drawn)	3.9	1.9	1.6%	3.2	10.0	-0.3
COc1ccc(-c2csc(C(O)c3ccc(OC)cc3)n2)cc1 (stereo not drawn)	·	2.6	5.3%	6.9	6.1	-0.6
CCOc1ccccc1NC(=O)CSc1nnc2ccc(-c3ccccn3)nn12	-22.2	-3.3	5.7%	3.8	7.6	-0.4
Cc1ccc(CCNS(=O)(=O)c2ccc3c(c2)NC(=O)C(C)C(=O)N3)cc1 (stereo not drawn)	45.6	-1.0	-0.9%	3.2	3.0	-0.3
O=[N+]([O-])c1ccc(NCCCN2CCOCC2)c([N+](=O)[O-])c1	-6.3	-1.4	1.6%	-0.4	4.4	-0.2
O=C(COc1ccccc1Cl)N1CCN(C(=O)c2ccco2)CC1	0.8	-1.2	1.0%	7.3	5.0	-0.1
CCN(CC)C(=O)C1CCN(S(=O)(=O)c2ccc3c(c2)CCCN3C(C)=O)CC1	-5.3	·	1.2%	·	·	0.7
CC(C)(C)OC(=O)c1c(N)n(CCCN2CCCC2=O)c2nc3ccccc3nc12	-3.5	-3.6	-0.6%	-0.7	0.9	-0.3
Cc1cc(=O)[nH]c(SCC(=O)Nc2ccccc2C)n1	39.5	1.6	-0.4%	2.2	1.5	-0.3
CC(=O)c1c(C)[nH]c(C(=O)OCC(=O)N2CCN(S(=O)(=O)c3ccc(C)cc3)CC2)c1C	-6.6	13.2	1.4%	1.4	3.9	1.6
COc1cccc(-n2c(CNc3ccc(F)cc3)nnc2SCC(N)=O)c1	-8.6	0.6	-3.2%[38.3 µM]	16.7	1.5	-0.3
Cc1cccn2c(=O)c(C(=O)NC3CCCCC3C)c(O)nc12 (stereo not drawn)	15.0	-7.0	11.7%	13.9	2.4	0.9
CCOC(=O)c1ccccc1NC(=O)c1cnc(N2CCOCC2)c2ccccc12	0.6	·	2.4%	·	·	1.6
Cc1ccccc1NC(=O)NCc1cccnc1	-3.1	-1.6	1.8%	2.6	10.0	0.7
O=C(Cc1ccc(Cl)cc1)Nc1ccc(Br)cc1	4.5	1.2	6.3%	14.5	2.5	1.3
Cc1ccc(-c2cc(=O)[nH][nH]2)c(C)c1	-0.8	-2.6	2.8%[38.3 µM]	-2.7	-1.4	-0.1
O=C(NC(c1ccccc1)c1ccccc1)c1ccc(S(=O)(=O)C(F)F)cc1	3.2	-2.9	6.3%	-2.0	-1.0	0.5
CCOc1ccc(NC(=O)N2CCC(C(=O)c3ccc(F)cc3)CC2)cc1	15.0	2.9	0.6%	-3.0	-0.6	0.4
CCS(=O)(=O)n1nc(NCc2cccc(OC)c2)nc1NCc1cccc(OC)c1	39.4	-3.0	-0.5%	-0.9	-9.7	2.5
Cc1cc(C)n(C(C)CC(=O)Nc2ccc(Cl)cc2C)n1 (stereo not drawn)	-3.2	·	0.1%	·	·	0.1
COc1ccc(C2CC(c3ccc(F)cc3)n3nc(NC(=O)c4ccco4)nc3N2)cc1 (stereo not drawn)	14.1	-2.7	2.0%	4.7	0.0	0.7
CC1CCC2(CC1)NC(=O)N(CC(=O)NC(C)c1ccc(F)c(F)c1)C2=O (stereo not drawn)	-2.6	-3.9	-1.8%	·	10.3	0.5
Cc1cc(N2CCC(C)CC2)nc2ccc(NC(=O)CCC(=O)N3CCN(c4ccccc4F)CC3)cc12	-9.3	·	4.7%	·	·	2.0
Clc1ccc(CCNC(c2ccc(Cl)cc2)c2nnc(-c3ccccc3)o2)cc1 (stereo not drawn)	31.3	·	1.0%	·	·	0.9
CCOc1ccccc1NC(=O)CN1C(=O)NC(Cc2c[nH]c3ccccc23)C1=O (stereo not drawn)	5.2	12.2	-0.3%	-3.9	-3.8	-0.6
c1cc(-c2ccoc2)n2ccnc2c1	·	-2.0	0.4%	-12.1	-22.3	0.0
CCOc1cc(C(=O)O)cc(Cl)c1OCC#N	-5.0	-6.2	-1.7%	13.4	-2.1	-0.6
COc1ccc(OC)c(CN2CCCC(C(=O)c3ccccc3SC)C2)c1 (stereo not drawn)	20.0	-3.8	?	-25.9	-22.8	1.5
COc1ccc(C(=O)N2CC(=O)Nc3ccccc32)cc1S(=O)(=O)N1CCOCC1	4.5	0.6	1.2%	8.6	5.9	-0.1
Cc1nnsc1C(=O)Oc1ccc(C#N)cc1	-10.8	·	-0.3%	·	·	-0.3
COc1ccc(CN2CCN(C(=O)Cn3ncn4cccc4c3=O)CC2)c(OC)c1OC	-20.5	-1.3	-3.7%	6.5	1.7	0.5
CCCCNc1ccc(-c2nc(-c3ccccn3)no2)cc1[N+](=O)[O-]	-14.5	·	0.4%	·	·	-0.4
C=CCn1cc(C(=O)OCC)c(=O)c2ccc(F)cc21	12.6	-3.6	-0.9%	3.0	-0.8	-1.0
Cn1c2c(c(=O)n(C)c1=O)C(CC(=O)Nc1ccccc1F)C(=O)N2 (stereo not drawn)	7.1	-0.6	0.1%	-4.5	-0.8	0.5
COc1ccc(C2(CNC(=O)c3ccccc3[N+](=O)[O-])CCOCC2)cc1	-6.9	-4.6	0.1%	1.1	-0.2	-0.5
O=C(O)CC/C(=C\c1ccc(N2CCCC2)c([N+](=O)[O-])c1)c1nc2ccccc2s1	6.4	-5.7	-0.4%	3.6	?	-1.6
COC(=O)CCC(=O)NC(=S)Nc1ccc(S(=O)(=O)Nc2cc(OC)nc(OC)n2)cc1	32.3	-1.6	-2.4%	-0.1	-0.9	0.5
CCOC(=O)c1cc(C#N)c(N2CCCNCC2)nc1C(F)(F)F	-9.8	-8.4	-0.2%	·	-5.9	0.4
CCC(C(=O)Nc1ccc(S(=O)(=O)N2CCN(C)CC2)cc1)c1ccccc1 (stereo not drawn)	24.9	-2.5	-0.3%	0.0	1.6	13.6
COc1ccc(-n2c(C)nc3cc(C(=O)NCc4ccc5c(c4)OCO5)ccc32)cc1	-10.3	-3.5	-0.3%	-4.9	-15.9	3.1
CCOc1ccc(Nc2nc(N3CCCC3)nc(N3CCN(c4ccc(OC)cc4)CC3)n2)cc1	18.5	-5.2	7.8%	-4.8	-2.7	-0.7
Cc1ncoc1C(=O)N1CCCC(C(=O)c2cccc(OC(C)C)c2)C1 (stereo not drawn)	-12.9	-2.9	2.7%	6.9	4.6	-0.3
COc1cccc(-c2nc3ccc(C(=O)N4CCCC(O)C4)cc3o2)c1 (stereo not drawn)	1.1	-1.7	-0.7%	-2.8	12.5	-0.2
O=C(CSc1n[nH]c(-c2ccccc2Cl)n1)N1CCN(c2ccccc2F)CC1	7.4	·	0.0%	·	·	2.2
Cc1ccc2cc(C#N)c(NCCNC(=O)C3CC3)nc2c1C	25.2	1.8	-0.9%[38.3 µM]	5.0	7.3	0.3
Cc1ccccc1CNC(=O)CSc1nnc(C)c2c(C)n(-c3ccccc3)nc12	2.9	·	0.4%	·	·	0.1
CC(C)(O)[C@H](O)Cc1cc2ccc(=O)oc2cc1O[C@@H]1O[C@H](CO)[C@@H](O)[C@H](O)[C@H]1O	16.5	-1.5	1.0%	-4.9	-10.0	0.0
O=[N+]([O-])c1cccc(-c2noc(-c3ccco3)n2)c1	-3.4	-2.1	0.1%	·	-1.9	-0.8
N#Cc1c(C(F)(F)F)cc(-c2ccccc2)[nH]c1=O	-4.7	-2.4	-1.4%	-2.9	-4.7	-0.4
CCc1ccc(-n2c(=O)c3c(C)c(C(=O)N(C)C)sc3n(Cc3cccc(C)c3)c2=O)cc1	-15.2	·	-0.7%	·	·	0.7
COc1ccc(NC(=O)CC2C(=O)N(c3cccc(OC)c3)C(=O)N2CCc2cccs2)cc1 (stereo not drawn)	-10.5	·	1.1%	·	·	0.2

Compound activity (PubChem BioAssay)
